Polio RdRp inh: inhibitors of poliovirus RNA polymerase binding and polymerization. P03300. poliovirus polymerase elongation, fluorescence polarization; stronger effect = lower value. % elongation, % (compound at 16.7 µg/mL). 150,000 tested, 0.66% active. AID 588519; in the data active means % elongation below about 90%; further: some results filed as inactive read as strong as hits
Target sequence (P03300 1749-2209 limits assumed): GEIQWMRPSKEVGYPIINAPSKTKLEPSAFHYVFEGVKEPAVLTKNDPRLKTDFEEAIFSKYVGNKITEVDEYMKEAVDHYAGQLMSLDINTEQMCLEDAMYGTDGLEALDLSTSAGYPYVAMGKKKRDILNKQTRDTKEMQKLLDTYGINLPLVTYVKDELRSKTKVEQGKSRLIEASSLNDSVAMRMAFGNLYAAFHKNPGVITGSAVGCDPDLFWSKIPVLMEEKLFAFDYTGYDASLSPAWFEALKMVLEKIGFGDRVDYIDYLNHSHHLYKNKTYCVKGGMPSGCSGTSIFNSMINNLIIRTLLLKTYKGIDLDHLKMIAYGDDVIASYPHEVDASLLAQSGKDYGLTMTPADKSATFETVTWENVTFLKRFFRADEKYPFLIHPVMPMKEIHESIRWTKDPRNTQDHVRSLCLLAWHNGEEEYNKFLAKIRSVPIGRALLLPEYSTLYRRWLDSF
MbtI inh: inhibitors of Mycobacterium tuberculosis siderophore enzyme MbtI; P9WFX0; purified MbtI enzyme, fluorescence intensity read-out; inhibition, %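 (about 17 µg/mL by stock and volumes)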; 100,000 tested, 0.89% active; AID 493033;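 active means above 50% in both replicates, above 80% if mildly self-fluorescent; inactive means the rest, strongly fluorescent compounds included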;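 further: 0% = mean of negative and 100% = mean of positive controls; one replicate is shown; some compounds called inactive have numbers as strong as hits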
Target sequence (P9WFX0 whole entry, looked up): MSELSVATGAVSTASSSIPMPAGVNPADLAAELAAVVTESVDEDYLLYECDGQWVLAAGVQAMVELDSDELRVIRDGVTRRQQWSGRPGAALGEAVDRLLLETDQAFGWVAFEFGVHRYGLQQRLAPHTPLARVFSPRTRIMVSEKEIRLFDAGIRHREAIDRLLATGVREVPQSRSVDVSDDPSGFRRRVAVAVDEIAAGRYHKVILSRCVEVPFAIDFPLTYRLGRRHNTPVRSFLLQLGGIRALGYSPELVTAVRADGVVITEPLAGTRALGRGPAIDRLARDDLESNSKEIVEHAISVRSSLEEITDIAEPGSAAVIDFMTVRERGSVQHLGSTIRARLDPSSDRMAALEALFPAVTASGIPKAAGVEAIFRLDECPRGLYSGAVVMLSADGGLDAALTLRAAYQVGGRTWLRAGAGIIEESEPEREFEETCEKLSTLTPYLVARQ
MenB inh: Mtb MenB enzyme inhibition; P9WNP5; MenB enzyme assay, absorbance read-out; some hits fall short of the stated cut; AID 540299; inhibition, %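 (about 12 µg/mL by stock and volumes)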; 100,000 tested, 0.43% active;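 active means mean of two replicates above 30%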;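 further: 0% = no compound and 100% = wells with inactive enzyme; the first replicate is given; strong numbers were not always called active; inactives centre near -10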
Polio RdRp inh intensity: also measured in Polio RdRp inh; calls as there; % elongation; measured here: total intensity read-out; formula for this scale not given here;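 total fluorescence in place of polarization; lower means less elongation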
* = called active by the depositor; i = inactive; / = not tested or not shown; & = joins results of further samples.

Codes: A = Polio RdRp inh; B = Polio RdRp inh intensity; C = MbtI inh; D = MenB inh
COc1cccc(C=Nc2cccc(C(=O)O)c2C)c1O
  A: 100	B: 100	C: -38	D: -18

CCc1ccccc1NC(=O)CNC(=O)c1n[nH]c(=O)c2ccccc12
  A: 107	B: 111	C: -11	D: -13

CC(On1nnc2ccc(C(F)(F)F)cc21)C(=O)Nc1ccc(C#N)cc1 (configuration not stated)
  A: 105	B: 104	C: 10	D: -27

CC1(C)CC(=O)C(C=NCCCN2CCCC2=O)=C(O)C1
  A: 105	B: 102	C: 7	D: -7

COCC(=O)N(CC1CCCO1)c1nnc(C)s1 (configuration not stated)
  A: 99	B: 101	C: -3	D: -20

O=C(Nc1cccnc1)c1cccn(Cc2cccc(Cl)c2)c1=O
  A: 101	B: 100	C: 7	D: 4

Cc1cc(C(=O)O)cs1
  A: 104	B: 100	C: 2	D: 21

CCOC(=O)c1sc(=S)n(-c2ccc(OC)c(Cl)c2)c1N
  A: 101	B: 96	C: 9	D: -32

O=C(Cn1[nH]c(=O)c2ccccc2c1=O)N1CCN(C/C=C/c2ccccc2)CC1
  A: 100	B: 104	C: 1	D: -13

CC(C)(C)c1csc(NC(=O)C(CC(=O)O)NCc2ccco2)n1 (configuration not stated)
  A: 100	B: 100	C: 2	D: -9

C=CCN=Cc1c(NCC=C)nc2ccccn2c1=O
  A: 100	B: 103	C: -55	D: -9

Cc1nn(-c2ccccc2)c2c1N(C(=O)CCC(=O)Nc1ccccc1Cl)CCS2
  A: 105	B: 102	C: -5	D: -10

COCCN1CN(Cc2ccccc2)c2nc3ccccc3n2C1
  A: 103	B: 107	C: -14	D: -16

COc1cccc(NC(=S)NC(Cc2ccccc2)c2ccccc2)c1 (configuration not stated)
  A: 104	B: 100	C: -1	D: -57

Cc1ccc(S(=O)(=O)Nc2c(C)[nH]c(=O)[nH]c2=O)cc1
  A: 102	B: 103	C: 1	D: 11

Cc1cc(Nc2ccc3ccccc3n2)n(-c2ccccc2)n1
  A: 99	B: 97	C: -227	D: -33

C#CCN=Cc1ccc(OCCC)cc1O
  A: 101	B: 108	C: -7	D: -40

Fc1cccc(Cl)c1CSc1ccccc1C1=NCCCN1
  A: 106	B: 107	C: 10	D: -13

O=S1(=O)N=CNc2ccc(S(=O)(=O)N3CCc4ccccc43)cc21
  A: 112	B: 154	C: -5	D: -5

Nn1c(SCc2ccccc2)nnc1C(F)(F)F
  A: 101	B: 101	C: -8	D: -16

CSc1ncc(Cl)c(C(=O)Nc2cccc3ccccc23)n1
  A: 104	B: 109	C: -13	D: /

CC(c1ccccc1)n1c(=O)[nH]c2ccccc21 (configuration not stated)
  A: 102	B: 105	C: 2	D: -47

COc1ccc(/C=C(\C#N)c2cccs2)cc1
  A: 105	B: 108	C: -12	D: -31

CCOc1ccc(C(=O)N(C)CC2COc3ccccc3O2)cc1 (configuration not stated)
  A: 103	B: 102	C: -9	D: -4

COc1cccc(C(=O)Nc2nc3cc4c(cc3s2)OCO4)c1
  A: 103	B: 95	C: 78	D: -28

Codes: A = Polio RdRp inh; B = Polio RdRp inh intensity; C = MbtI inh; D = MenB inh
O=C(Nc1ccc2c(c1)OCO2)Nc1ccc(N2CCOCC2)c2nonc12
  A: 98	B: 102	C: -1	D: -20

O=C(COc1ccccc1)N1CCNCC1
  A: 102	B: 98	C: 0	D: -37

CC(=O)Nc1ccc(S(=O)(=O)Nc2ccccc2C(=O)NC(C)(C)C)cc1
  A: 101	B: 101	C: -37	D: -23

COC(=O)c1cn(NC(=O)C2CCC(C)CC2)c(=O)c2ccccc12 (configuration not stated)
  A: 101	B: 105	C: 3	D: 5

COc1ccc(/C=C2\SC(=O)N(CC(N)=O)C2=O)cc1
  A: 101	B: 99	C: 18	D: 4

CCc1cccc2c(C(=O)COC(=O)/C=C/c3ccco3)c[nH]c12
  A: 106	B: 110	C: -6	D: -53

COc1ccc(N2CCN(C(=O)CCCN3C(=O)CSC3=S)CC2)cc1
  A: 114	B: 124	C: 34	D: -57

O=C(COC(=O)c1ccc(F)cc1)NCc1ccc(F)cc1
  A: 101	B: 101	C: -14	D: /

Clc1ccc(CSC2=NCCCN2)cc1Cl
  A: 102	B: 108	C: -1	D: /

COc1ccc(/C=N/n2cnnc2SC)cc1OC
  A: 98	B: 102	C: -4	D: 0

Cc1cccc(-n2c(C)cc(CNC(=O)NC(C)C)c2C)c1
  A: 101	B: 102	C: -9	D: 14

C=C(C)COc1c(Cl)cc(C#N)cc1OC
  A: 105	B: 103	C: -5	D: -13

C=CCC1(O)CC(c2ccccc2)NC(c2ccccc2)C1CC (configuration not stated)
  A: 104	B: 106	C: /	D: -3

CCOc1ccc(CN(C)C(=O)c2ccc3ccccc3n2)cc1
  A: 100	B: 103	C: 9	D: -24

CCn1c(C=Nc2ccccc2)nc2ccccc21
  A: 102	B: 103	C: -1	D: 7

COCCCNc1oc(-c2ccccc2Cl)nc1C#N
  A: 101	B: 104	C: i	D: 4

Cc1cc(=O)oc2cc(OCC3CC(c4ccccc4)=NO3)ccc12 (configuration not stated)
  A: 104	B: 96	C: 0	D: -32

CCCc1cc(=O)[nH]c(SCCSC)n1
  A: 104	B: 107	C: 33	D: 7

CCN(CC(=O)NC1CCS(=O)(=O)C1)S(=O)(=O)c1ccccc1 (configuration not stated)
  A: 98	B: 103	C: -18	D: -119

COc1ccccc1-n1cnc2cc(C(=O)NC3CCCC3)ccc21
  A: 103	B: 99	C: -12	D: -21

NCCSC(=S)NC1CCCCCCC1
  A: 92	B: 97	C: 6	D: -71

CC(C)c1nc2nc(N)nc(N)c2nc1C(C)C
  A: 105	B: 104	C: /	D: -10

OC1COC(NCCc2ccccc2)C(O)C1O (configuration not stated)
  A: 120	B: 202	C: /	D: 0

O=C(CSc1nc2ccccc2[nH]1)N/N=C/c1ccccc1O
  A: 100	B: 101	C: -1	D: -34

CC1(C)c2ccccc2N2CC(=O)NC21/C=C/c1ccc(F)cc1 (configuration not stated)
  A: 103	B: 105	C: -4	D: 1

Complete entries, looked up by structure. Order of screens: Polio RdRp inh	Polio RdRp inh intensity	MbtI inh	MenB inh
`CCOC(=O)c1sc(=S)n(-c2ccc(OC)c(Cl)c2)c1N` reads 101	96	9	-32
`O=C(Nc1ccc2c(c1)OCO2)Nc1ccc(N2CCOCC2)c2nonc12` reads 98	102	-1	-20
`COc1ccc(/C=C(\C#N)c2cccs2)cc1` reads 105	108	-12	-31

Following part:
Codes: A = Polio RdRp inh; B = Polio RdRp inh intensity; C = MbtI inh; D = MenB inh
Cc1nn(C2CCS(=O)(=O)C2)c2ncc(C(=O)c3cc(F)ccc3O)cc12 (configuration not stated)
  A: 97	B: 90	C: 2	D: 12

CCN(CC)S(=O)(=O)c1ccc2c(c1)C(=O)c1cc(S(=O)(=O)N(CC)CC)ccc1-2
  A: 100	B: 100	C: -1	D: -6

OCC(O)/C=N/Nc1nc(Nc2ccccc2)nc(N2CCCCC2)n1 (configuration not stated)
  A: 100	B: 101	C: -13	D: 9

Cc1cc(C)n(-c2cc(C(=O)O)ccc2C)n1
  A: 104	B: 102	C: 5	D: -48

CCSc1nn2cc(-c3ccccc3Cl)nc2s1
  A: 110	B: 123	C: -8	D: -11

CCN(CC)C(=O)C1(P(=O)(c2ccccc2)c2ccccc2)CC1
  A: 104	B: 101	C: /	D: -22

CCCCN(C(=S)Nc1ccc(C)cc1)C1CCN(C(C)=O)CC1
  A: 101	B: 101	C: -15	D: -6

CC(=O)OCCCn1c(C)nc2cc(Cl)ccc21
  A: 109	B: 109	C: /	D: -23

c1ccc(CCNc2nc3ccccc3[nH]2)cc1
  A: 100	B: 103	C: -21	D: 2

COc1ccc(-c2cc(C(F)(F)F)nc(N3CCCCCC3)n2)cc1
  A: 103	B: 99	C: 14	D: -7

O=C(COC(=O)C1CC2C=CC1C2)Nc1ccccc1 (configuration not stated)
  A: 103	B: 105	C: -6	D: /

Cc1c(NC(=O)NCc2cccnc2)sc2nc3n(c(=O)c12)CCC(C)CC3 (configuration not stated)
  A: 105	B: 104	C: -6	D: -17

CC(C)CCNS(=O)(=O)c1ccc(-c2ccc(S(=O)(=O)NCCC(C)C)cc2)cc1
  A: 102	B: 103	C: -18	D: -31

CCCSc1nsc(NC(=O)CN2C(=O)COc3ccccc32)n1
  A: 121	B: 118	C: 18	D: 5

O=C1N/C(=N/S(=O)(=O)c2ccccc2)S/C1=C/c1ccccc1O
  A: 101	B: 107	C: 12	D: -70

Cc1ccc(NC(=O)c2cc(C(C)C)[nH]n2)cc1
  A: 103	B: 107	C: -1	D: -15

NS(=O)(=O)c1ccc(CCNCc2ccc3c(c2)OCO3)cc1
  A: 102	B: 98	C: -10	D: -12

O=C(NCc1ccccc1)N1CCSc2ccccc21
  A: 102	B: 103	C: -1	D: -2

Cc1ccc(C(=O)c2coc3ccc(O)cc23)o1
  A: 107	B: 114	C: /	D: -11

Cc1cc(=O)oc(C)c1C(=O)NC1CCCc2ccccc21 (configuration not stated)
  A: 103	B: 97	C: -1	D: -11

O=c1[nH]cnc2ccc(Br)cc12
  A: 98	B: 98	C: -11	D: -39

CC(C)CCNC(=O)c1cc2sccc2n1Cc1ccc(F)cc1
  A: 101	B: 101	C: -1	D: 15

Cc1ccc(C)c(OC2=NS(=O)(=O)c3ccccc32)c1
  A: 104	B: 103	C: 12	D: -7

COc1ccccc1NC(=O)Cn1c(CN2CCCCC2)nc2ccccc2c1=O
  A: 101	B: 107	C: -13	D: 1

NNC(=O)CNC(=O)c1ccc2c(c1)OCO2
  A: 101	B: 102	C: 59	D: 9

Single values from the results shown:
Under MbtI inh, `COc1ccc(-c2cc(C(F)(F)F)nc(N3CCCCCC3)n2)cc1` reads 14
Under MenB inh, `CC(C)CCNS(=O)(=O)c1ccc(-c2ccc(S(=O)(=O)NCCC(C)C)cc2)cc1` reads -31
Under Polio RdRp inh, `Cc1ccc(NC(=O)c2cc(C(C)C)[nH]n2)cc1` reads 103

The results go on.
Codes: A = Polio RdRp inh; B = Polio RdRp inh intensity; C = MbtI inh; D = MenB inh
COC(=O)c1cccc(NC(=O)c2ccccc2)c1
  A: 100	B: 99	C: 4	D: 3

CCC(OC(=O)c1cc2sccc2n1C(C)C)C(=O)NCc1ccc(OC)cc1 (configuration not stated)
  A: 103	B: 103	C: 3	D: -61

COc1ccc(Br)cc1COC(=O)C1c2ccccc2Oc2ccccc21
  A: 105	B: 110	C: -9	D: -24

Cc1[nH]n(C)c(=O)c1N=Nc1c(Cl)cc(C(F)(F)F)cc1Cl
  A: 104	B: 100	C: -6	D: -30

N#CSCCCOc1ccc2ccccc2c1
  A: 98	B: 104	C: 24	D: -14

CCCCn1c(N)c(N2CCOCC2)c(=O)n(CC(=O)N2C(C)CCCC2C)c1=O (configuration not stated)
  A: 103	B: 106	C: 36	D: -5

CCCC[C@@H](C=O)NC(=O)[C@H](CC(C)C)NC(=O)[C@H](CC(C)C)NC(C)=O
  A: 103&102	B: 101&100	C: -3	D: 1

COCCn1cnc2c1c(=O)n(CC(O)c1ccccc1)c(=O)n2CC(C)C (configuration not stated)
  A: 97	B: 101	C: -11	D: -14

Cc1occc1-c1nnc(SCC(=O)N(CCc2ccccc2)Cc2ccccc2)n1N
  A: 104	B: 109	C: -1	D: -33

CCc1ccc2c(CN3CCN(S(=O)(=O)c4ccc5c(c4)OCCO5)CC3)cc(=O)oc2c1
  A: 104	B: 111	C: -1	D: -7

C=CCn1cnnc1SC(C)C(=O)N(CC)c1cccc2ccccc12 (configuration not stated)
  A: 98	B: 99	C: 6	D: -11

CC(=O)Nc1cc(C)nn1-c1nc2ccccc2n1C
  A: 103	B: 107	C: -1	D: /

COc1ccc2c(c1)c1nc(SC)n(CCO)c(=O)c1n2C
  A: 104	B: 102	C: 5	D: -13

Cc1cccc(NC(=O)CN2N=C(c3ccccc3)CCC2=O)c1C
  A: 100	B: 101	C: 5	D: -16

CC(OC(=O)C1COc2ccccc2O1)C(=O)N1CCc2ccccc21 (configuration not stated)
  A: /	B: /	C: -5	D: -33

Cc1ccccc1NC(NC(=O)c1ccco1)C(=O)c1ccccc1 (configuration not stated)
  A: 101	B: 104	C: 3	D: -7

Cc1c(C(=O)N2CCCC2)oc2c1-c1nn(CC(=O)O)cc1CC2
  A: 101	B: 104	C: 8	D: 2

O=C(CSc1ncccn1)N1CCN(S(=O)(=O)c2ccc(Cl)cc2)CC1
  A: 102	B: 104	C: 4	D: -15

CSc1ccc(Cl)c(C(=O)N2CCc3ccccc32)c1
  A: 101	B: 104	C: -1	D: /

C=CCn1c(SCC(=O)O)nnc1-c1ccc(OC)c(OC)c1
  A: 101	B: 102	C: -2	D: 17

O=C(C1CCCN(S(=O)(=O)c2cccc3nonc23)C1)N1CCc2ccccc2C1 (configuration not stated)
  A: 100	B: 105	C: 1	D: 19

COc1ccc(COC(=O)N/N=C/c2ccco2)cc1
  A: 104	B: 98	C: 13	D: -54

O=C(CCc1ccccc1)OCCN1CCCC1=O
  A: 103	B: 101	C: 13	D: 9

Cc1ccc(-n2cnc3scc(-c4cccs4)c3c2=O)cc1
  A: 100	B: 104	C: -2	D: /

O=C(OCC(=O)N1CCCC1)c1ccc2ncsc2c1
  A: 102	B: 108	C: 17	D: -7

CCCCN1C(=O)NC2NC(=O)NC21 (configuration not stated)
  A: 101	B: 101	C: 7	D: 2

Cc1cc2nc(N3CCN(c4ccccc4)CC3)c3ccccc3n2n1
  A: 103	B: 104	C: 19	D: -20

O=C(CC1Sc2ccccc2NC1=O)Nc1cccc(-c2nnc3n2CCCCC3)c1 (configuration not stated)
  A: 95	B: 94	C: 12	D: -18

High-throughput results (PubChem)
